Assay outcomes from PubChem BioAssay.
CDC25B CDK2 inh: human CDC25B-CDK2/CyclinA binding inhibition; P30305+P24941; HTRF CDC25B-CDK2/CyclinA binding, anti-His/anti-Flag; hits give high values; z-score (concentration not given with the values); hit rate 0.72% among 94,000; AID 1259370;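 further: score is relative to mean and SD of negative controls; strong numbers were not always called active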
TAR Tat displ: HIV-1 TAR-Tat binding disruption; HIV-1 TAR RNA, Tat peptide displacement FRET; hits give high values; z-score (no concentration beside the values); hit rate 0.6% among 100,000; AID 1259389;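 further: score is relative to mean and SD of negative controls; some compounds called inactive have numbers as strong as hits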
* hit, by the source's call; . = not tested or not shown.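 How the source made its calls: active means z-score from 3 up in half or more of its runs; inactive means the rest.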

Structure	CDC25B CDK2 inh	TAR Tat displ
CCOc1ccc(-c2nc(CO)c(C)o2)cc1	.	2.7
CN(C)c1ccc(CNS(=O)(=O)c2ccc(CN3C(=O)c4cccnc4C3=O)s2)cc1	.	-0.24
CCOc1ccc(OCC)c(NS(=O)(=O)c2ccc3c(c2)NC(=O)C(C)S3)c1 (configuration not stated)	.	1.2
O=C(CSc1nccn(-c2ccc(F)cc2)c1=O)c1ccc(F)cc1	.	-0.67
CCN(CC)S(=O)(=O)c1ccc2c(c1)CC(C(=O)N1CCCC1)N2C(C)=O (configuration not stated)	.	0.84
O=C(Nc1cccc(Cl)c1)c1[nH]nc2c1COc1ccccc1-2	.	0.91
O=C(Cn1c(=O)c2cccn2c2ccc(F)cc21)NCc1cccs1	.	1.4
N#Cc1nccnc1N1CCN(C(=O)Nc2ccc(OC(F)(F)F)cc2)CC1	-0.3	.
CCCn1c2ccccc2c2cnn(CC(=O)N(CC)c3cccc(Cl)c3)c(=O)c21	.	1.8
CC(C)CCNC(=O)C(=O)NCc1n[nH]c(=O)c2ccccc12	.	2.3
Cc1cc(-c2ccc(S(=O)(=O)N3CCn4c3nc3ccccc34)s2)n[nH]1	.	0.11
CCOC(=O)c1cc(C)n(CC2CCC(C(=O)N3CCCC3)CC2)c1C (configuration not stated)	.	0.41
CC(=O)Oc1cc(C)cc2oc(=O)cc(-c3ccccc3)c12	0.12	.
CCOC(=O)c1sc2ccccc2c1S(=O)(=O)Nc1ccc(F)c(F)c1	.	-1.7
COc1ccc(S(=O)(=O)NCCc2nnc3ccc(SCc4ccccc4)nn23)cc1	.	1.3
CCc1ccc2oc(C(=O)N(Cc3ccc(C(C)(C)C)cc3)C3CCS(=O)(=O)C3)cc(=O)c2c1 (configuration not stated)	-0.72	0.74
CC1=C(c2ccc(C(C)C)cc2)S(=O)(=O)N=C1Nc1ccc2c(c1)OCCO2	-1.5	-0.08
CCC(=O)OC1=C(C(=O)OC)N(C)S(=O)(=O)c2ccccc21	-0.96	-0.47
C#CCOc1ccc(C2CC(=O)Nc3n[nH]c(-c4ccc(Cl)cc4)c32)cc1 (configuration not stated)	1.8	-0.35
CCCCCn1c(CN2CCN(C(=O)c3ccco3)CC2)nc2c1c(=O)n(C)c(=O)n2C	-1.6	-0.04
COc1ccc(OC)c(-c2nc3c(c(=O)[nH]2)Cc2cc(Br)ccc2O3)c1	-1.4	-0.87
CC(Sc1nc2c(cnn2-c2ccc(F)cc2)c(=O)[nH]1)c1ccccc1 (configuration not stated)	0.1	.
O=C(CSc1nc(-c2ccco2)cc(C(F)(F)F)n1)N1CCN(c2ccc(Cl)cc2)CC1	-0.88	-0.23
Cc1ccc(S(=O)(=O)Nc2cc(N3CCCS3(=O)=O)ccc2C)c(C)c1	.	-0.63
CCc1ccc(S(=O)(=O)N2CCN=C2SC)cc1	-1.1	2.2
COc1ccccc1-c1nc(SCc2cc(=O)n3c(C)csc3n2)n[nH]1	.	-0.33
COC(=O)C1=C(C)NC2=C(C(=O)CC(c3cccs3)C2)C1c1ccc(F)c(F)c1 (configuration not stated)	-0.22	-0.69
O=C(O)C1=CC(c2ccc(F)cc2)n2ncnc2N1 (configuration not stated)	0.8	0.91
O=C(C1CCCN(S(=O)(=O)c2cccc3nonc23)C1)N1CCN(c2ccccc2Cl)CC1 (configuration not stated)	-2.2	1.6
CCN1CCCC1CNC(=O)c1cc2c(s1)-c1ccccc1OC2 (configuration not stated)	0.12	-0.45
CN1CCN(c2ncnc3c2c(-c2ccccc2)cn3-c2ccccc2)CC1	.	1.4
CCCc1[nH]nc2c1C(c1cccc(OC)c1OC)C(C#N)=C(N)O2 (configuration not stated)	-0.72	2.6
Cc1nc2c(C)cccn2c(=O)c1Cc1nnc(SCC(=O)N2CCCC2)n1C	-0.75	-1.2
CNC(=O)c1[nH]nc2c1COc1ccccc1-2	.	1.1
C=CCOc1ccc(C2N3CC4(C)CN2CC(c2ccccc2)(C3)C4=O)cc1 (configuration not stated)	-1	0.19
O=C(CSc1nc2nccnc2c(=O)n1Cc1ccco1)Nc1ccccc1	-1.5	2.4
Cc1oc2ncnc(N3CCCCC3)c2c1C(=O)NCCc1ccsc1	.	2.2
O=C(Cn1c(=O)oc2cc(S(=O)(=O)N3CCOCC3)ccc21)NC1CCCc2ccccc21 (configuration not stated)	-1.4	.
CC1Cc2ccccc2N1C(=O)c1cc2c(=O)n3ccccc3nc2n1C (configuration not stated)	.	0.89
c1ccc(N2CCN(c3nc4ccccc4c4nc(-c5ccncc5)nn34)CC2)nc1	-2.1	-0.35
COc1ccccc1C1/C(=C(\O)c2ccccc2)C(=O)C(=O)N1Cc1cccnc1 (configuration not stated)	-3.8	0.22
Cc1nc2c3cccnc3nn2c(C)c1CCC(=O)NC1CCCCC1	-1.5	0.03
CC(=O)C[n+]1cccc2cccc(O)c21	2.2	.
Cc1ccc(-c2noc(CSc3nnc(C)n3-c3ccc(Cl)cc3)n2)cc1	-0.76	2.8
Cc1ccnc(NC(=O)NCc2noc3ccc(C)cc23)c1	.	0.32
CC(C)CNC(=O)c1ccc2c(=O)n(C)c3n[nH]c(=O)n3c2c1	0.3	0.24
CS(=O)(=O)N1CCc2cc(S(=O)(=O)NC3CCCC3)ccc21	.	0.43
COc1ccc2nc(C3C(=O)c4ccccc4C3=O)ccc2c1	-0.07	1.1
CCOC(=O)C1=C(O)/C(=C\c2cccc3ccccc23)N=C1C	-1.8	.
O=c1cc2nc(-c3cccs3)nc(SCc3cccc(Br)c3)n2[nH]1	.	0.47
CCOc1ccc(/C(O)=C2\C(=O)C(=O)N(Cc3cccnc3)C2c2ccc(OC)c(OC)c2)cc1C (configuration not stated)	-1.8	1.3
Cc1ccc(C)n1-c1nnc(N2CCC(C(=O)N3CCCCC3)CC2)s1	-1.9	0
O=S(=O)(Oc1cccnc1)c1cccc2nonc12	-0.8	.
COc1cc(CCc2cc(OC)c(C)cc2OC)c(OC)cc1C	-0.63	.
Cc1ccc(-n2ncc3c(NCCC(C)C)ncnc32)cc1	.	2.2
Cc1cccc(-c2nc3nc(C)cc(=O)n3[nH]2)c1	0.24	0.95

Sorted by length of the SMILES (falling): part of the list above
Structure	CDC25B CDK2 inh	TAR Tat displ
CCOc1ccc(/C(O)=C2\C(=O)C(=O)N(Cc3cccnc3)C2c2ccc(OC)c(OC)c2)cc1C (configuration not stated)	-1.8	1.3
Cc1ccc(C)n1-c1nnc(N2CCC(C(=O)N3CCCCC3)CC2)s1	-1.9	0
CCOC(=O)C1=C(O)/C(=C\c2cccc3ccccc23)N=C1C	-1.8	.

Of the compounds above, these have fluorine.
Structure	CDC25B CDK2 inh	TAR Tat displ
O=C(CSc1nccn(-c2ccc(F)cc2)c1=O)c1ccc(F)cc1	.	-0.67
O=C(Cn1c(=O)c2cccn2c2ccc(F)cc21)NCc1cccs1	.	1.4
N#Cc1nccnc1N1CCN(C(=O)Nc2ccc(OC(F)(F)F)cc2)CC1	-0.3	.
CCOC(=O)c1sc2ccccc2c1S(=O)(=O)Nc1ccc(F)c(F)c1	.	-1.7
CC(Sc1nc2c(cnn2-c2ccc(F)cc2)c(=O)[nH]1)c1ccccc1 (configuration not stated)	0.1	.
O=C(CSc1nc(-c2ccco2)cc(C(F)(F)F)n1)N1CCN(c2ccc(Cl)cc2)CC1	-0.88	-0.23
COC(=O)C1=C(C)NC2=C(C(=O)CC(c3cccs3)C2)C1c1ccc(F)c(F)c1 (configuration not stated)	-0.22	-0.69
O=C(O)C1=CC(c2ccc(F)cc2)n2ncnc2N1 (configuration not stated)	0.8	0.91

The results go on.
Structure	CDC25B CDK2 inh	TAR Tat displ
Cc1ccc(-c2nc(CSc3nnc(C)n4c3cc3sccc34)c(C)o2)cc1	.	5.6
CN1CCN(C(=O)c2ccc3c(c2)sc2nc(-c4ccc(F)cc4)cn23)CC1	.	2.5
COC(=O)c1sccc1OC(=O)c1cc2ccccc2oc1=O	-1.6	.
CCn1cc(-c2ccc3ccccc3n2)c(=S)c2ccccc21	-1.9	0.85
O=C(CSc1ncn[nH]1)c1ccc(Cl)cc1	-1.9	0.85
Cc1ccc(/C(O)=C/C(=O)C(=O)NNC(=O)c2cc(C)nc3ccccc23)cc1	-0.35	.
CCOCCCN1C(=O)c2cc3sccc3n2CC1(C)C(=O)NC1CCCCC1C (configuration not stated)	-0.3	2.6
CC1=C(C(=O)OC(C)C)C(c2ccc(Cl)cc2)C2=C(CC(c3ccccc3)CC2=O)N1 (configuration not stated)	-1.6	0.87
N[C@@H](CCCCNC(=O)OCc1ccccc1Cl)C(=O)O	-1.4	.
Cc1nc(CCNC(=O)C2CCN(C(=O)Cc3cccs3)CC2)cs1	.	1.9
CCc1nn(CC(=O)N2CCN(c3ccc(F)cc3)CC2)c(=O)c2cc3occc3n12	0.01	1.5
Cn1cc(C(=O)N2CCN(c3ccccc3)CC2)c(=O)c2cc(S(=O)(=O)N3CCCC3)ccc21	-1.8	-0.41
CC1CCCC(NC(=O)c2cnn3c4c(cnc23)CCCC4)C1C (configuration not stated)	.	-2.2
Cc1ccc(-c2nc(CN3N=NC4C(=O)N(c5ccccc5)C(=O)C43)c(C)o2)cc1 (configuration not stated)	.	-0.48
O=C(c1ccco1)c1cn(CC(=O)N2CCOCC2)c2ccccc12	0.59	0.58
COc1cccc(S(=O)(=O)c2c[nH]c3ccc(OC)cc3c2=O)c1	1.5	-1.1
O=C(CC1(O)C(=O)Nc2ccc(F)cc21)c1ccccc1F (configuration not stated)	.	1.5
CCn1nc(C)c(CNC(=O)Nc2cccc(F)c2)c1C	.	-0.45
COc1ccc(NC(=O)c2cc(Cl)cc(Cl)c2)c([N+](=O)[O-])c1	-2.5	.
CC1(C)Cc2c(sc3nnn(CC(=O)NCc4ccco4)c(=O)c23)CO1	-1.3	-1.5
CC1CCC(C(=O)NC(C(=O)NCc2ccco2)C(C)C)CC1 (configuration not stated)	-0.3	0.65
CSC(=S)NNC(=O)c1ccc(C(F)(F)F)cc1	-0.25	.
O=S(=O)(NCCCc1ccccc1)c1ccc(N2CCCCS2(=O)=O)cc1	.	0.54
CCOC(=O)C1CCCN(c2cc(=O)n(C)c(=O)[nH]2)C1 (configuration not stated)	-0.96	0.84
CCCCNC(=O)C1=Cc2cc(Cl)ccc2OC=C1	-0.56	0.58
Cc1cc2nc(C)n(CCC(C)C)c2cc1C	0.12	0.84
O=C(NCCc1ccco1)C1CCN(c2ccccc2)C1=O (configuration not stated)	.	-0.92
Cc1ccc(Nc2cc(C)nc3ccc(C)cc23)cc1	-1	-0.29
O=c1c2nccnc2nc(SCc2ccc(F)cc2)n1Cc1ccccc1Cl	-1.5	2.3
O=C(Nc1nccs1)NC1CC(=O)N(c2ccc3c(c2)OCCO3)C1 (configuration not stated)	.	2
O=C(CSc1n[nH]c(-c2ccco2)n1)c1ccc(O)cc1O	-3	2.6
COc1cccc(N2C(=O)c3cccnc3C2O)c1 (configuration not stated)	-2	-1.1
O=C(CSC1=Nc2ccccc2C2=NC(c3ccccc3)C(=O)N12)c1ccccc1 (configuration not stated)	-0.27	.
Cc1nnc(N2CCN(C(=O)Nc3ccc(F)cc3F)CC2)c2nn(-c3ccccc3)c(C)c12	.	-1.6
COc1cc2c(c(OC)c1OC)C(c1ccc(F)cc1)CC(=O)N2 (configuration not stated)	-0.48	.
COc1ccc2cc3c(nc2c1)N(S(=O)(=O)c1ccc(OC)c(C)c1)CC3	-0.58	0.77
O=C1c2oc3ccccc3c(=O)c2C(c2ccc(OCc3ccccc3)cc2)N1c1ccccn1 (configuration not stated)	-0.96	0.63
CCOC(=O)C1=C(C)NC2=C(C(=O)CC(C)(C)C2)C1c1cccs1 (configuration not stated)	-1	1.9
CCc1nc2ccccc2n1CC(O)COc1ccccc1 (configuration not stated)	-1.8	0.52
Oc1ccc(-c2ccccc2)cc1CN1CCCCCC1	0.34	.
CCOCCOC(=O)C(C)Oc1ccc(Oc2ncc(Cl)cc2Cl)cc1 (configuration not stated)	-2.4	.
CSc1cccc(NC(=O)C2COc3ccccc3O2)c1 (configuration not stated)	-0.59	.
CC1=C(c2ccc(F)cc2)S(=O)(=O)NC1=NCc1cccs1	.	-1.4
Oc1ccccc1C1=NC(c2ccc(Br)cc2)NC(c2ccccn2)C1 (configuration not stated)	-0.68	0.56
O=c1cc(CO)oc(C(Nc2ccccn2)c2ccccc2F)c1O (configuration not stated)	-0.67	.
O=C(Cn1cc(S(=O)(=O)Cc2ccccc2)c2ccccc21)NCC1CCCO1 (configuration not stated)	.	-2.8
O=C1c2cccnc2C(=O)N1Cc1ccc(S(=O)(=O)Nc2cccc(Cl)c2)s1	.	0.2
O=C(NC1CCCCC1)N1CCC(N2CCN(Cc3ccccc3)C2=O)CC1	.	1.8
O=C(O)c1nccnc1C(=O)OCCCc1ccncc1	-0.73	.
O=C(O)c1ccc2c(c1)NC(=O)C1CCCN21 (configuration not stated)	.	-3.9
CC1NC(=O)C(N)CNC(=O)C(C2CCN=C(N)N2)NC(=O)/C(=C/NC(N)=O)NC(=O)C(CNC(=O)CC(N)CCCN)NC1=O (configuration not stated)	.	1.4
Cc1nc2cc(S(=O)(=O)N3CCC(C(=O)NCC4CCCO4)CC3)ccc2n1C1CCCC1 (configuration not stated)	1	0.77
O=C(c1ccc2c(c1)OCO2)N1CCN(c2ncnc3c2nnn3-c2ccc(F)cc2)CC1	.	1.3
COc1ccc(C(=O)c2cnc3ccc(OC)cc3c2N2CCCC2)cc1	-1.5	0.7
